From PubChem BioAssay
Cruzain inh Det: blocks cruzain activity in presence of Triton detergent | P25779 | purified cruzain, Z-FR-AMC fluorescence, 0.01% Triton | Potency, µM, for inactives: max response, negative = inhibition, hits mostly inhibitors | actives 0.43% (n = 200,000);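 also: plate controls were neutral wells for no effect and buffer without enzyme for full effect; nearly all actives have a fitted effect of over 40% in size; top concentration of the series not given in the record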
Target sequence (P25779 123-467 limits assumed): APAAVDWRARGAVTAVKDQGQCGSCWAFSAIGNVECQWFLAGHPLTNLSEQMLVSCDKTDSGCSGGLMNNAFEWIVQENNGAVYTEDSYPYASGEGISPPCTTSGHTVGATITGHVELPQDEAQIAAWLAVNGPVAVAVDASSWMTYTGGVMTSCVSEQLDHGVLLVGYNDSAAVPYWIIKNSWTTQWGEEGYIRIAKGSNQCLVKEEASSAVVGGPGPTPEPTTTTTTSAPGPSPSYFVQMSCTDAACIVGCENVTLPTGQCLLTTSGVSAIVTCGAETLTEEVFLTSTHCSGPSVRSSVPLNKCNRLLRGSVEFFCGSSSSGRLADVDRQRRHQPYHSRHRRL
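Sodium acetate buffer (100 mM, pH 5.5) containing 5 mM DTT and 0.01% Triton X-100 hosted 1.5 nM cruzain and test compound for 15 min at room temperature. Cleavage of 2 uM Z-FR-AMC was then tracked by fluorescence.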
Cruzain inh noDet: blocks cruzain activity in detergent-free assay; purified cruzain, Z-FR-AMC fluorescence, no detergent; Potency, µM, for the others: max response, negative = inhibition, hits mostly inhibitors; actives 2.3% (n = 200,000); AID 1476;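 also: plate controls were enzyme without inhibitor for no effect and buffer without enzyme for full effect; nearly all actives have a fitted effect of over 40% in size; top concentration of the series not given in the record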
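Purified cruzain at 1.5 nM, pre-incubated 15 min with compound at room temperature in 100 mM sodium acetate pH 5.5, 5 mM DTT, 0.00005% Triton X-100. Reaction started with 2 uM Z-FR-AMC; AMC fluorescence increase over 60 s gives rate.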
NS1 function inh: influenza NS1 inhibition | AID 2326 | S. cerevisiae slowed by influenza A NS1, growth recovery by OD600 | actives 0.4% (n = 270,000) | Potency, µM (series often up to 46.1 µM), inactives show top-dose activity, positive = more growth; active means well fitted rising curve with a large enough effect; inconclusive means small, poorly fitted or top-dose-only effect; inactive means no such curve, though single readings can be large or run the other way; also: nearly all actives have a fitted effect of over 50% in size
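A cell-based growth assay was used: compounds that relieve NS1-induced slow growth of budding yeast raise OD600. Assay medium was yeast nitrogen base with ammonium sulphate and -URA supplement, pH 6.0, with 2% galactose.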
RE007 growth inh: less growth of the S. pombe RE007 Vpr strain | S. pombe RE007 Vpr strain, BacTiter-Glo ATP luminescence, 24 h; control for the full effect not named in the record | Potency, µM (series often up to 92.2 µM), for inactives: at the top dose activity change, negative = less growth | actives 0.21% (n = 360,000); active = well fitted falling curve with a large enough effect; inconclusive = small, poorly fitted or top-dose-only effect; inactive = no such curve, though single readings can be large or run the other way;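 also: % is scaled to controls: 0 for no effect and ±100 for the full control effect; nearly all actives have a fitted effect of over 50% in size; the assay follows cell death caused by Vpr and the record does not say whether a fall means rescue or toxicity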
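Fission yeast RE007 carrying one integrated HIV-1 vpr copy, seeded at OD 0.01 in PMG+AL medium with 23 nL pinned compound. Grown 24 h at 30 degrees; viability read by BacTiter-Glo luminescence after 5 min.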
Lassa entry inh: Lassa virus entry inhibition; Lassa virus pseudotype entry inhibition, cell reporter; control for the full effect not named in the record; AID 540256; Potency, µM (doses to about 37.9 µM), for inactives: top-dose activity change, negative = inhibition, hits mostly inhibitors; actives 1.2% (n = 300,000); active means well fitted inhibition curve with a large enough effect; inconclusive means small, poorly fitted or top-dose-only effect, or effect the other way; inactive means flat fitted curve, though single readings scatter; tested in HEK293 cells; also: % is scaled to controls: 0 for no effect and ±100 for the full control effect; nearly all actives have a fitted effect of over 50% in size; luciferase read-out
2A StopGo: lowers the luciferase signal of an FMDV 2A StopGo reporter; human cells with a luciferase reporter of 2A StopGo recoding; control for the full effect not named in the record; Potency, µM (series often up to 57.9 µM), for inactives: at the top dose signal change, negative = less light; actives 1.2% (n = 410,000); active = well fitted falling curve with a large enough effect; inconclusive = small, poorly fitted or top-dose-only effect; inactive = no such curve, though single readings can be large or run the other way; tested in HEK293T cells; also: % is scaled to controls: 0 for no effect and ±100 for the full control effect; nearly all actives have a fitted effect of over 45% in size; luciferase light after 4 h
SARS PLpro yeast: SARS-CoV PLP inhibition in yeast; S. cerevisiae expressing SARS-CoV PLpro, growth rescue; control for the full effect not named in the record; Potency, µM (highest dose often 32.9 µM), for the others: at the highest dose activity, positive = growth rescue; actives 0.19% (n = 330,000); AID 485353; active means well fitted rising curve with a large enough effect; inconclusive means small, poorly fitted or top-dose-only effect; inactive means no such curve, though single readings can be large or run the other way; also: 0% is about no effect; nearly all actives have a fitted effect of over 55% in size; growth read by luminescence after 48 h
Marburg entry inh: Marburg virus entry inhibition. Potency, µM (top dose mostly 37.8 µM), for the others: at the highest dose activity change, negative = inhibition, usual class: inhibitors. actives 1.8% (n = 300,000). Marburg virus pseudotyped entry inhibition, cell reporter; control for the full effect not named in the record; about a third of the inactives were read at about 46 µM; active = well fitted inhibition curve with a large enough effect; inconclusive = small, poorly fitted or top-dose-only effect, or effect the other way; inactive = flat fitted curve, though single readings scatter; tested in HEK293 cells; about a fifth of its hits are not listed in these tables; also: % is scaled to controls: 0 for no effect and ±100 for the full control effect; luciferase read-out
An asterisk follows results filed as active; ? = inconclusive; nt = no result given; & = joins results of further samples; [ ] = another dose, or the depositor's remark. Unless noted, calls follow the shape of the dose curve; as a rule, active = well fitted curve in the direction sought with a large enough effect; inconclusive = small, poorly fitted or top-dose-only effect, or another doubt; inactive = no such curve, though single readings can be large; an effect the other way counts as inactive or inconclusive. Potency is read from the fitted curve at half-maximal effect.

SMILES	Cruzain inh Det	Cruzain inh noDet	NS1 function inh	RE007 growth inh	Lassa entry inh	2A StopGo	SARS PLpro yeast	Marburg entry inh
CCN(CC)S(=O)(=O)c1cccc(-c2nnc(SCc3nnc(-c4cccs4)o3)n2N)c1	-5.3%	3%	-4%	-4%	?	?	10%	-12%&-12%[46.1 µM]
CC1(c2ccc3ccccc3c2)NC(=O)N(CC(=O)Nc2cccc(S(=O)(=O)N3CCOCC3)c2)C1=O (stereo not drawn)	-11%	18%	10µM*	14%	0%	35µM*	-3%	?
O=C(NCCOc1ccccc1)c1ccccc1[N+](=O)[O-]	nt	nt	-9%	6%	nt	33%[activator]	0%	nt
Cc1ccc(OCCC(=O)NCCc2ccc(S(N)(=O)=O)cc2)cc1	1.5%	-3%	0%	15%	-7%	-10%	1%	28%
COc1ccc(S(=O)(=O)N2CCN(CC3CC=CCC3)CC2)cc1 (stereo not drawn)	nt	nt	-8%	-7%	-6%	?	0%	-6%[46.1 µM]
C=CCn1c(O)c(N=NC(=O)OC(C)(C)C)c2ccccc21	-3.4%	3%	-4%	-13%	1%	24%	11%	29%
Cn1c(=S)[nH]c2ccccc21	2.7%	-9%	-8%	19%	14%	14%	17%	-7%
Cc1c(C(=O)Nc2nc(-c3ccc(F)cc3)ns2)oc2ccc(Cl)cc12	2.6%	-12%	nt	nt	28%[46.1 µM]	28%	nt	11%[46.1 µM]
CCc1ccc(/C=C(/C#N)C(N)=S)cc1	-4.1%	-9%	17%	2%	12%	-8%	26%	?
COc1cc(C(O)CO)ccc1OS(=O)(=O)O (stereo not drawn)	4.6%	2%	-6%	10%[18.4 µM]	14%	-2%	nt	?
Fc1ccc(NC(=S)N/N=C/c2ccc(F)c(F)c2)c(F)c1	4.4%	?	11%	10%[3.69 µM]	3%	20%	?	-3%
CCC(=O)N1CCc2cc(S(=O)(=O)NCCC(=O)Nc3cc(C)ccc3OC)ccc21	-0.3%	-6%	nt	nt	13%[46.1 µM]	-5%	nt	4%[46.1 µM]
CC1CCCC(NC(=O)CCS(=O)(=O)c2cc3c(cc2Cl)NC(=O)CO3)C1C (stereo not drawn)	nt	nt	4%	-1%	nt	-21%	-5%	nt
Cc1cc(S(=O)(=O)N(Cc2ccccc2Cl)c2ccc3c(c2)CCC3)ccc1-n1cnnn1	-1.8%	?	-7%	-1%	?	54%[activator]	-9%	?
Cn1c(SCC(=O)NCc2ccccc2)nnc1-c1ccc(NC(=O)CCc2ccccc2)cc1	3.0%	3%	-1%	7%	8%	-3%	1%	?
O=C(CN1c2ccc(Br)cc2-c2ccccc2S1(=O)=O)N1CCCCC1	-1.2%	1%	nt	nt	14%[46.1 µM]	63%[activator]	nt	?
CCOC(=O)C1(C)NC(c2cccs2)C2C(=O)N(c3ccc(C)cc3)C(=O)C21 (stereo not drawn)	nt	nt	nt	2%	?	-15%	3%	-21%[46.1 µM]
O=C(Nc1cccc(-c2nc3ccccc3c(=O)o2)c1)c1ccccc1	nt	nt	nt	5%	-13%	70%[activator]	-2%	0%[46.1 µM]
CCOC(=O)c1c(C)[nH]c(C)c1C(=O)CSc1nncs1	nt	nt	nt	11%	0%	-2%	0%	?
CCSc1nc2ccccc2c(OCc2ccccc2Cl)c1C(=O)OC	-1.4%	?	nt	nt	13%[46.1 µM]	-7%	nt	nt
Cc1ccc(-n2cnc3c(sc4nccc(N(C)C)c43)c2=O)cc1	-3.0%	6%	-42%	11%	16%	-11%	2%	5%
CC1(C)Cc2cccc(C(=O)Nc3ccncc3)c2O1	nt	nt	-4%	3%	-17%	?	-1%	?
CC(Oc1ccccc1)C(=O)Nc1ccc(S(=O)(=O)N2CCN(C)CC2)cc1 (stereo not drawn)	nt	nt	nt	2%	8%	6%	nt	?
COCC(=O)OCC(=O)Nc1ccccc1-c1ccccc1	nt	nt	-5%	6%	1%	-9%	1%	0%[14.2 µM]
CCn1c(=O)c2[nH]c(-c3ccccc3)nc2n(CC)c1=O	-4.2%	8%	1%	nt	nt	nt	nt	?
O=C(CCCN1C(=O)c2ccccc2C1=O)NC1=NCCS1	5.4%	-4%	?	2%	?	13%	9%	22%
Cc1cccc(CSc2ncnc3ccccc23)c1	nt	nt	nt	-1%	3%	15%	4%	-6%[46.1 µM]
COC(=O)c1ccc(NC(=O)C(=O)N2CCN(C(=S)Nc3cccc(C)c3C)CC2)cc1	-3.9%	17%	11%	-13%	2%	?	-35%	?
Clc1ccc(-c2nnc(C34CC5CC(CC(C5)C3)C4)o2)cn1	8.8%	0%	-1%	-5%	-2%	-5%	2%	?
Cc1csc(N/N=C\c2cccnc2)n1	nt	nt	nt	-5%	5%	40%[activator]	-2%	22%[46.1 µM]
CCCCC(=O)Nc1cccc(NC(=O)c2ccc3c(c2)OCO3)c1	-4.0%	2%	-6%	4%	-6%	46%[activator]	2%	-5%
Cc1nc2ccccc2c(=O)n1-c1cccc([N+](=O)[O-])c1	nt	nt	11%	1%	nt	-3%	1%	nt
O=C(CSc1nnc(C2COc3ccccc3O2)o1)N1CCN(c2ccccc2)CC1 (stereo not drawn)	nt	nt	-12%	2%	nt	-17%	2%	nt
C/C(CC1CC(C)(C)OC1=O)=N\NC(N)=S (stereo not drawn)	nt	nt	7%	24%	23%	22%	23%	-9%[46.1 µM]
COc1ccc(-c2nc3n(n2)C(c2ccccc2)C(C(=O)Nc2cccnc2)=C(C)N3)cc1 (stereo not drawn)	-2.7%	4%	nt	nt	15%[46.1 µM]	-5%	nt	nt
Cc1cc(C)n2nc(SCC(=O)NC3CCCCC3C)nc2n1 (stereo not drawn)	nt	nt	11%	-4%	nt	2%	0%	nt
CCN(CC)S(=O)(=O)c1nnc(NC(=O)COc2ccc(Cl)cc2)s1	-1.7%	5%	nt	nt	24%[46.1 µM]	-7%	nt	nt
CCOc1cc(/C=C2\C(=O)N(CCc3ccc(OC)c(OC)c3)C(C)=C2C(=O)OC)ccc1O	-9.1%	?	22%	0%	-6%	20µM*	3%	17%
COc1ccc(OCCCC(=O)OCC(=O)Nc2sccc2C(N)=O)cc1	nt	nt	nt	9%	22%	3%	-2%	2%[46.1 µM]
COc1ccc(-c2sc3ccc(OC)cc3c2C#CCCO)cc1	nt	nt	-26%	-17%	nt	11%	-14%	nt
COc1cccc(NC(=O)NNS(=O)(=O)c2ccc(OC)cc2OC)c1	nt	nt	8%	-6%	nt	-3%	3%	nt
O=C(Cc1cccs1)NC1(C(=O)NC2CCCC2)CCCCC1	-2.8%	10%	3%	3%	3%	17%	-2%	?
COC(=O)c1ccc(C2NC(=O)c3c(sc(C)c3C)N2)cc1 (stereo not drawn)	nt	nt	0%	-6%	nt	37%[activator]	0%	nt
COc1ccc(/C=C\C(=O)NCC(=O)N/N=C/c2cccc(OC)c2O)cc1	nt	nt	0%	-3%	nt	-6%	-2%	nt
CSc1nc(Cl)cc(N2CCOCC2)n1	nt	nt	nt	-11%	0%[46.1 µM]	2%	-3%	18%[46.1 µM]
Cc1ccc(S(=O)(=O)NC2=NCN(C(C)C)CN2)cc1	nt	nt	-10%	23%	nt	7%	1%	-5%[46.1 µM]
CC(=O)c1sc(NC(=O)c2cccc3ccccc23)nc1C	-12%	?	6%	-23%	27%	35%[activator]	3%	13%
c1cncc(C2CCCCN2)c1 (stereo not drawn)	4.0%	-1%	3%	-11%	nt	3%&-10%&5%	0%	nt
Cc1ccc(CNC(=O)CN2C(=O)CSc3ccc(S(=O)(=O)N(C)C)cc32)cc1	1.1%	10%	nt	nt	22%[46.1 µM]	21%	nt	nt
O=C(CSc1nc2ccccc2[nH]1)Nc1ccc(N2CCOCC2)cc1	nt	nt	6%	0%	-8%	-19%	-1%	-3%

The list goes on:
SMILES	Cruzain inh Det	Cruzain inh noDet	NS1 function inh	RE007 growth inh	Lassa entry inh	2A StopGo	SARS PLpro yeast	Marburg entry inh
COCCCNC(=O)c1cc(C)nn1-c1ccccc1	nt	nt	-1%	2%	nt	-10%	-1%	2%
O=C(CSc1nnc2scc(-c3ccc(Cl)cc3)n12)Nc1cccc(C(F)(F)F)c1	-4.1%	-13%	nt	nt	-22%[46.1 µM]	0%	nt	?
C(=N\n1cnnc1)/c1ccc2c(c1)OCO2	-2.0%	-6%	-3%	2%	19%	10%	-6%	8%
Cc1ncc(CO)c(/C=N/NC(=O)c2ccc(Br)cc2)c1O	-6.0%	-9%	4%	nt	?	nt	?	-26%
Cc1ccc(SCc2cc(=O)[nH]c(/N=C(\N)Nc3ccccc3Sc3ccccc3)n2)cc1	2.8%	13µM*	7%	-21%	-9%	-18%	-8%	-13%
O=C(COc1ccc(S(=O)(=O)NC2CCCCC2)cc1)Nc1ccc(C(F)(F)F)cc1	-3.5%	3%	nt	nt	-11%[46.1 µM]	0%	nt	-11%[46.1 µM]
CCn1c(=O)c2c(n3c(=S)[nH]nc13)-c1ccccc1CC21CCCCC1	nt	nt	nt	0%	7%[46.1 µM]	-12%	-2%	-1%[46.1 µM]
O=C1COc2ccc(C(=O)COC(=O)Cc3ccc(Cl)cc3)cc2N1	nt	nt	nt	15%	-9%	-3%	3%	?
CCOc1ccc(NS(=O)(=O)c2cc(NC(=O)C3CC3)ccc2C)cc1Br	nt	nt	nt	-3%	?	-6%	-9%	?
O=C(Cn1cnc2c(nnn2Cc2ccc(Cl)cc2)c1=O)c1ccccc1	nt	nt	16%	7%	nt	-10%	-1%	nt
COc1ccc(OC)c(CCNC(=O)CN2C(=O)COc3ccc(S(=O)(=O)N4CCCCCC4)cc32)c1	-5.1%	14%	nt	nt	-14%[46.1 µM]	-17%	nt	?
Cc1c(C(=O)NCc2cccnc2)sc2ncn(CC(=O)N3CCCCC3C)c(=O)c12 (stereo not drawn)	0.9%	3%	-10%	-10%	1%	-24%	0%	-20%
COCC1CCCCN1Cc1cn(-c2ccccc2)nc1-c1ccc2c(c1)OCO2 (stereo not drawn)	nt	nt	-3%	6%	-19%	4%	-1%	?
Cc1nc2cc(-c3ccc(F)cc3)[nH]n2c(=O)c1C	nt	nt	20%	7%	nt	47%[activator]	0%	nt
Cc1ccc(CN2CCN(CC(=O)N3CCc4ccccc4C3)C2=O)cc1	0.5%	6%	-1%	nt	nt	nt	9%	-6%
COc1ccc(CC(=O)N2CCN(c3ccccc3)CC2)cc1	nt	nt	1%	22%	nt	8%	0%	nt
CCOC(=O)C(Cc1ccc(O)cc1)NC(=O)CCc1c[nH]c2ccccc12 (stereo not drawn)	nt	nt	3%	12%	nt	-5%	0%	nt
